Screens (PubChem)
Vaccinia stage – blocks a specific stage of Vaccinia orthopoxvirus infection. Vaccinia-infected cells, mCherry/Venus stage reporter fluorescence; stronger effect = lower value; some inactives read as strong as hits. activity change (mCherry), % (no concentration beside the values). 89,000 tested, 0.01% active. AID 1053133;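 active means mCherry past -33% and 40 or more points under the early reporter, replicates agreeing; inconclusive means past -33% without that gap or agreement; tested in A549 cells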;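 further: scaled between vehicle wells and reference inhibitor wells; 23 nL library stock went into each well; one replicate is shown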
Vaccinia stage Venus – recorded beside Vaccinia stage, whose call it bears; activity change (Venus), %; measured here: Venus reporter, other viral stage;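 negative = less Venus signal; first of two replicates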
* marks the source's active call; other numbers are inactive results; ? = inconclusive; nt = no result given.

smiles	Vaccinia stage	Vaccinia stage Venus
O=C(C[C@@H]1CC[C@@H]2[C@H](COC[C@@H](O)CN2S(=O)(=O)c2ccccc2)O1)N1CCOCC1	22	17
CC(=O)CC(=O)N1C(=O)N(C)[C@@]2(C)Oc3ccccc3[C@@H]1[C@H]2COC(=O)c1ccc([N+](=O)[O-])cc1	7	0
C[C@H](CO)N1C[C@H](C)[C@H](CN(C)C(=O)NC2CCCCC2)Oc2ccc(NC(=O)Nc3ccc4c(c3)OCO4)cc2CC1=O	16	13
C[C@H]1CN([C@@H](C)CO)C(=O)c2cc(NC(=O)C3CC3)ccc2O[C@H]1CN(C)S(=O)(=O)c1cccs1	12	11
COc1ccc2c3c(n(C)c2c1)[C@H](CO)N(Cc1nccs1)CC31CCN(CC2CCCC2)CC1	-27	-31
C[C@@H]1CN([C@H](C)CO)C(=O)c2cc(NS(=O)(=O)c3ccc(F)cc3)ccc2O[C@@H]1CN(C)Cc1ccc(C(F)(F)F)cc1	?	nt
Cc1noc(C)c1NC(=O)Nc1ccc2c(c1)C(=O)N([C@H](C)CO)C[C@H](C)[C@H](CN(C)S(=O)(=O)c1cccs1)O2	15	4
C[C@H]1CN([C@@H](C)CO)C(=O)c2cc(/C=C/c3ccccc3)cnc2O[C@H]1CN(C)C(=O)Nc1ccccc1F	-25	-21
CCCN(C)C[C@@H]1OCCCC[C@@H](C)Oc2ccc(NS(C)(=O)=O)cc2C(=O)N([C@@H](C)CO)C[C@@H]1C	0	-5
CN(C)C(=O)C[C@@H]1CC[C@@H](NC(=O)Nc2cccc(F)c2)[C@@H](CO)O1	16	11
COc1ccccc1S(=O)(=O)N1CC[C@@H]2[C@@H](CO)N(C)c3ccc(-c4ccccc4)cc3[C@@H]21	?	nt
Cc1noc(C)c1S(=O)(=O)Nc1ccc2c(c1)C(=O)N([C@H](C)CO)C[C@H](C)[C@@H](CN(C)C(=O)NC(C)C)OCCCC[C@@H](C)O2	9	7
COC(=O)c1c2oc(c1C(=O)OC)C(=O)N(C)Cc1cn(nn1)C[C@H](Cc1ccccc1)NC(=O)N[C@H](CO)CC2	-5	-1
C[C@H]1CN([C@@H](C)CO)C(=O)c2cc(NS(=O)(=O)c3ccccc3)ccc2O[C@@H]1CN(C)Cc1ccc2c(c1)OCO2	11	11
O=C(C1CC1)N1[C@H](CO)[C@H]2c3ccccc3N(S(=O)(=O)c3ccc(F)cc3)C[C@H]21	2	8
CCCNC(=O)Nc1ccc2c(c1)C(=O)N(C)C[C@H](OC)[C@H](C)CN(S(C)(=O)=O)[C@@H](C)CO2	45	22
C[C@@H]1CN([C@H](C)CO)C(=O)c2cc(NC(=O)Cc3ccccc3)ccc2O[C@@H](C)CCCCO[C@H]1CN(C)C(=O)NC1CCCCC1	?	nt
CCCNC(=O)C[C@@H]1CC[C@@H]2[C@H](COC[C@H](O)CN2C(=O)Nc2ccccc2OC)O1	2	9
C[C@H](CO)N1C[C@H](C)[C@H](CN(C)C(=O)c2cc(Cl)cc(Cl)c2)OCc2ccccc2-c2c(n(C)c3ccccc23)C1=O	?	nt
COc1ccc2c3c([nH]c2c1)[C@H](CO)N(C)CC31CN(C(=O)C2CC2)C1	10	3
C[C@@H]1CN([C@@H](C)CO)C(=O)c2cccc(NC(=O)c3nc4ccccc4s3)c2O[C@@H]1CN(C)S(=O)(=O)c1cn(C)cn1	-6	-6
C[C@@H]1CN([C@H](C)CO)C(=O)c2cccc(NS(=O)(=O)c3cccs3)c2O[C@@H]1CN(C)Cc1ccccc1	6	1
Cc1ccc(S(=O)(=O)N(C)C[C@H]2Oc3c(cccc3N(C)C)C(=O)N([C@H](C)CO)C[C@H]2C)cc1	9	5
CCCC#Cc1ccc2c(c1)O[C@H](CN(C)C(C)=O)[C@@H](C)CN([C@H](C)CO)S2(=O)=O	4	7
CCNC(=O)C[C@H]1CC[C@H]2[C@@H](COc3ccc(NC(=O)c4ccc5c(c4)OCO5)cc3C(=O)N2C)O1	8	-3
COc1ccc(NC(=O)Nc2cccc3c2O[C@@H](CN(C)C(=O)Nc2ccc(F)cc2)[C@H](C)CN([C@H](C)CO)C3=O)cc1	5	-3
COc1ccc(C#Cc2ccc3c(c2)[C@H]2[C@H](CCN2C(=O)CC2CC2)[C@@H](CO)N3)cc1	4	5
COc1ccc(NC(=O)Nc2ccc3c(c2)C(=O)N([C@H](C)CO)C[C@@H](C)[C@H](CN(C)Cc2ccncc2)OCCCC[C@@H](C)O3)cc1	13	6
C/C=C/c1ccc([C@@H]2[C@@H](C#N)N(C(=O)NC3CCCC3)[C@@H]2CO)cc1	-3	-2
Cc1noc(C)c1NC(=O)Nc1cccc2c1O[C@@H](CN(C)C(=O)NC1CCCCC1)[C@H](C)CN([C@@H](C)CO)C2=O	0	3

smiles	Vaccinia stage	Vaccinia stage Venus
CC(C)NC(=O)N1[C@@H]2c3ccc(-c4ccccc4F)c(=O)n3C[C@@H]2[C@@H](CO)[C@@H]1C(=O)NC1CCC1	10	0
COc1ccc(NC(=O)Nc2ccc3c(c2)CC(=O)N([C@@H](C)CO)C[C@H](C)[C@@H](CN(C)Cc2ccc4c(c2)OCO4)O3)cc1	-2	-4
COc1ccccc1-c1ccc2c(c1)[C@H]1[C@H](CCN1C(=O)C1CCC1)[C@@H](CO)N2	?	nt
C/C=C/c1ccc([C@@H]2[C@H](CO)N(C(C)=O)C23CN(C(=O)c2ccncc2)C3)cc1	12	8
CCS(=O)(=O)Nc1ccc2c(c1)C(=O)N(C)C[C@H](OC)[C@@H](C)CN(Cc1nccs1)[C@H](C)CO2	36	12
CN1c2ccc(-c3cccc(F)c3)cc2[C@H]2[C@H](CCN2C(=O)c2ccc3c(c2)OCO3)[C@H]1CO	?	nt
O=C(NC1Cc2ccccc2C1)[C@@H]1[C@@H](CO)[C@@H]2Cn3c(ccc(-c4ccccc4F)c3=O)[C@H]1N2	-12	-10
CO[C@H]1CN(C)C(=O)c2ccc(NC(=O)C3CC3)cc2OC[C@H](C)N(C(C)=O)C[C@H]1C	9	11
CC(C)NC(=O)N(C)C[C@H]1Oc2c(NC(=O)c3ccncc3)cccc2C(=O)N([C@@H](C)CO)C[C@H]1C	14	3
C[C@@H]1CN([C@@H](C)CO)C(=O)c2cc(NS(=O)(=O)c3ccc(Cl)cc3)ccc2O[C@@H](C)CCCCO[C@@H]1CN(C)Cc1ccc(C(=O)O)cc1	24	11
CC(C)N(C[C@@H]1N[C@@H](CO)[C@H]1c1ccccc1)C(=O)CN1CCOCC1	8	6
CCCNC(=O)C[C@@H]1CC[C@H]2[C@@H](COc3ccc(NC(=O)c4ccccc4)cc3C(=O)N2C)O1	-1	0
C[C@H](CO)N1C[C@H](C)[C@H](CN(C)C(=O)CC2CC2)Oc2ncc(C#CC(C)(C)O)cc2C1=O	17	3
COc1ccc(-c2ccc([C@H]3[C@H](CO)N4C(=O)CN(C(=O)c5cccnc5)C[C@@H]34)cc2)cc1	21	14
O=C(Nc1ccc(F)cc1)N1C[C@@H]2[C@H](c3ccccc31)[C@@H](CO)N2C(=O)c1ccccc1F	14	16
C[C@H](CO)N1C[C@H](C)[C@H](CN(C)C(=O)Nc2ccccc2)Oc2ccc(NC(=O)CCCN(C)C)cc2C1=O	10	15
C[C@H]1CN([C@@H](C)CO)C(=O)c2cc(NC(=O)Nc3ccccc3)ccc2O[C@@H]1CN(C)S(=O)(=O)c1ccc(F)cc1	9	8
C[C@H](CO)N1C[C@H](C)[C@H](CN(C)C(=O)c2ccccc2)Oc2cc(C#C[C@@H](C)O)ccc2S1(=O)=O	10	4
C[C@H]1CN([C@@H](C)CO)S(=O)(=O)c2ccc(C#Cc3ccncc3)cc2O[C@@H]1CN(C)S(=O)(=O)c1ccc(F)cc1	-28	-28
Cc1ccc(S(=O)(=O)Nc2ccc3c(c2)C(=O)N([C@@H](C)CO)C[C@H](C)[C@@H](CN(C)S(C)(=O)=O)OCCCC[C@@H](C)O3)cc1	10	0
C[C@@H]1CN([C@@H](C)CO)C(=O)c2cc(NC(=O)CCN3CCOCC3)ccc2O[C@@H]1CN(C)CC1CC1	-7	3
COc1ccc2c3c([nH]c2c1)[C@@H](CO)N(C(C)=O)CC31CN(S(=O)(=O)c2ccccc2)C1	17	-3
C[C@H]1CN([C@@H](C)CO)C(=O)c2cc(NC(=O)CCC(F)(F)F)ccc2O[C@@H]1CN(C)Cc1ccc(Cl)c(Cl)c1	-14	-16
CCCNC(=O)N1C[C@@H]2[C@H](c3ccccc31)[C@H](CO)N2C(=O)c1ccncc1	16	14
O=C(N[C@H]1CC[C@H](CCn2cc(-c3ccccc3)nn2)O[C@@H]1CO)c1ccccc1F	-34	-28
CN(C)CC(=O)N1[C@@H]2Cn3c(ccc(C4=CCCCC4)c3=O)[C@H]1[C@@H](C(=O)NCC1CC1)[C@@H]2CO	12	4
C[C@@H]1CN([C@H](C)CO)C(=O)Cc2cc(NC(=O)Nc3ccccc3)ccc2O[C@@H]1CN(C)Cc1ccc(-c2ccccc2)cc1	?	nt
CN(C)C(=O)c1cccc(-c2ccc([C@@H]3[C@@H](CO)N4CCCCN(C(=O)C5CCCC5)C[C@H]34)cc2)c1	23	8
Cc1cccc(S(=O)(=O)N2CCCCN3[C@H](CO)[C@H](c4ccc(-c5ccncc5)cc4)[C@H]3C2)c1	-31	-27
Cc1noc(C)c1S(=O)(=O)Nc1cccc2c1O[C@@H](CN(C)Cc1ccncc1)[C@@H](C)CN([C@@H](C)CO)C2=O	7	9

Arranged by SMILES length (ascending): 3 of the compounds above
smiles	Vaccinia stage	Vaccinia stage Venus
O=C(N[C@H]1CC[C@H](CCn2cc(-c3ccccc3)nn2)O[C@@H]1CO)c1ccccc1F	-34	-28
CO[C@H]1CN(C)C(=O)c2ccc(NC(=O)C3CC3)cc2OC[C@H](C)N(C(C)=O)C[C@H]1C	9	11
O=C(Nc1ccc(F)cc1)N1C[C@@H]2[C@H](c3ccccc31)[C@@H](CO)N2C(=O)c1ccccc1F	14	16

Remaining list, next part
Values run as follows: Vaccinia stage	Vaccinia stage Venus
> C[C@@H]1CCCCO[C@H](CN(C)S(=O)(=O)c2cn(C)cn2)[C@@H](C)CN([C@@H](C)CO)C(=O)c2cc(NS(=O)(=O)c3cccs3)ccc2O1
 : 25	0
> CC(C)NC(=O)Nc1ccc2c(c1)C(=O)N([C@H](C)CO)C[C@@H](C)[C@@H](CN(C)Cc1ccccc1)OCCCC[C@@H](C)O2
 : -11	-5
> O=C(C[C@@H]1C[C@H]2c3cc(NC(=O)NC4CCCC4)ccc3O[C@H]2[C@H](CO)O1)NCc1ccccc1F
 : 3	0
> C/C=C/c1ccc2c(c1)O[C@H](CN(C)Cc1ccncc1)[C@H](C)CN([C@H](C)CO)S2(=O)=O
 : -6	-4
> CCCN1C[C@@H](C)[C@H](OC)CN(C)C(=O)c2ccc(NC(=O)COC)cc2OC[C@@H]1C
 : -21	-12
> C[C@@H]1CN([C@@H](C)CO)C(=O)c2cc(NC(=O)c3ccncc3)ccc2O[C@H]1CN(C)S(=O)(=O)c1ccccc1
 : 6	4
> O=C(C[C@H]1CC[C@H](NC(=O)c2ccccn2)[C@@H](CO)O1)NCc1cccc(F)c1
 : 0	-2
> N#C[C@@H]1[C@H](c2ccccc2)[C@@H](CO)N1C(=O)c1cccnc1
 : 7	5
> CC(C)(C)[C@@H]1C=C(C(=O)N2CCOCC2)O[C@H](OCc2ccc(CO)cc2)C1
 : 20	5
> C[C@H]1CN([C@@H](C)CO)C(=O)c2cc(NC(=O)CCN3CCOCC3)ccc2O[C@@H]1CN(C)Cc1ccc(Oc2ccccc2)cc1
 : -13	-14
> CO[C@@H]1CN(C)C(=O)c2cc(NC(C)=O)ccc2OC[C@H](C)N(C(=O)c2ccncc2)C[C@@H]1C
 : 4	0
> CCCNC(=O)Nc1ccc2c(c1)OC[C@@H](C)N(C(=O)CC)C[C@H](C)[C@H](OC)CN(C)C2=O
 : -5	0
> O=S(=O)(Cc1ccccc1)N1CCCCN2[C@@H](CO)[C@@H](c3ccc(-c4ccc(F)cc4)cc3)[C@@H]2C1
 : ?	nt
> O=C(C[C@H]1C[C@@H]2c3cc(NC(=O)Nc4ccccc4)ccc3O[C@@H]2[C@@H](CO)O1)NCc1ccccn1
 : 18	9
> C[C@@H]1CN([C@@H](C)CO)C(=O)c2cc(C#CC3CCCCC3)cnc2O[C@H]1CN(C)Cc1ccncc1
 : -19	-14

3 entries from above, as labelled records:
> C[C@@H]1CCCCO[C@H](CN(C)S(=O)(=O)c2cn(C)cn2)[C@@H](C)CN([C@@H](C)CO)C(=O)c2cc(NS(=O)(=O)c3cccs3)ccc2O1
  Vaccinia stage: 25	Vaccinia stage Venus: 0
> CC(C)NC(=O)Nc1ccc2c(c1)C(=O)N([C@H](C)CO)C[C@@H](C)[C@@H](CN(C)Cc1ccccc1)OCCCC[C@@H](C)O2
  Vaccinia stage: -11	Vaccinia stage Venus: -5
> O=C(C[C@@H]1C[C@H]2c3cc(NC(=O)NC4CCCC4)ccc3O[C@H]2[C@H](CO)O1)NCc1ccccc1F
  Vaccinia stage: 3	Vaccinia stage Venus: 0

(listing goes on)
Values run as follows: Vaccinia stage	Vaccinia stage Venus
> C[C@H](CO)N1C[C@H](C)[C@H](CN(C)C(=O)Nc2cccc(F)c2)OCc2cn(nn2)CCCC1=O
 : 6	5
> O=C(C[C@@H]1CC[C@@H]2[C@H](COC[C@H](O)CN2S(=O)(=O)c2cccc(Cl)c2)O1)N1CCOCC1
 : 15	6
> C[C@H]1CN([C@@H](C)CO)C(=O)c2cc(C#Cc3ccccn3)cnc2O[C@H]1CN(C)Cc1cncnc1
 : 23	14
> Cc1ccc(S(=O)(=O)N(C)C[C@H]2Oc3c(NC(=O)C4CCCCC4)cccc3C(=O)N([C@H](C)CO)C[C@@H]2C)cc1
 : 1	-3
> COc1ccccc1-c1ccc([C@H]2[C@H](CO)N(C(C)=O)C23CN(C(C)=O)C3)cc1
 : 11	9

Some of the compounds tested, so the mix of outcomes need not match the whole.
